LANA-nucl inh: inhibitors of KSHV LANA binding to nucleosomes | FITC-LANA1-23 / chicken nucleosome fluorescence polarization; hits give low values | z-score (no concentration beside the values) | 51,000 compounds, 0.3% hits;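 active means both repeat wells score below -2 in polarization z-score versus plate sample wells, excluding overly bright wells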;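 further: 100 nL library stock added to about 30 µL; numbers are from one replicate; some results filed as inactive read as strong as hits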
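Assay system: purified chicken nucleosomes with FITC-labelled LANA N-terminal peptide (1-23) / Probe or stimulus: 50 nM FITC-LANA1-23 probe / Compound dosing: pin-transferred compound, 100 nL / Times: compound with peptide–nucleosome mix 10–45 min at room temperature / Technique: fluorescence polarization, 480 nm excitation, 535 nm parallel and perpendicular emission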
Ab BasE inh: BasE siderophore biosynthesis inhibition; purified BasE, fluorescence polarization binding displacement; inhibition, % (test concentration not listed); 84,000 compounds, 0.1% hits;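 active means both replicates above 25% with normal brightness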;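 further: 0% = negative plate control signal and 100% = positive plate control signal; stock transfer was 100 nL into about 30 µL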
Active calls of the source: *; nt = no result given. This is a subset; count on the stated rates, not on these rows.

The opening 6 compounds, to show the layout:
molecule | LANA-nucl inh | Ab BasE inh
O=C(COC(=O)CCC1CCCC1)NC1CCCCCC1 | nt | 1.5
O=C(COC(=O)Cn1cnc2ccccc2c1=O)NCc1ccccc1Cl | nt | 1.2
O=CN1CCN(c2nc(-c3ccccc3)cs2)CC1 | 0.43 | -0.1
O=C(N/N=C/c1ccccc1O)C1(O)c2ccccc2-c2ccccc21 | 0.57 | -8.0
CC(=O)Oc1ccccc1C(=O)Nc1ccc(OC(F)F)cc1 | 1.6 | -3.6
N#CC1=C(N)C(C#N)(C#N)C(C2C=CCCC2)C2CCCC=C12 (stereo unspecified) | -0.41 | -0.3

Results, previewed entries included:
molecule | LANA-nucl inh | Ab BasE inh
O=C(COC(=O)CCC1CCCC1)NC1CCCCCC1 | nt | 1.5
O=C(COC(=O)Cn1cnc2ccccc2c1=O)NCc1ccccc1Cl | nt | 1.2
O=CN1CCN(c2nc(-c3ccccc3)cs2)CC1 | 0.43 | -0.1
O=C(N/N=C/c1ccccc1O)C1(O)c2ccccc2-c2ccccc21 | 0.57 | -8.0
CC(=O)Oc1ccccc1C(=O)Nc1ccc(OC(F)F)cc1 | 1.6 | -3.6
N#CC1=C(N)C(C#N)(C#N)C(C2C=CCCC2)C2CCCC=C12 (stereo unspecified) | -0.41 | -0.3
Cc1ccc(-c2cc(C(=O)Nc3nccs3)c3ccccc3n2)o1 | nt | -3.1
CSc1ccccc1NC(=O)C(C)NS(=O)(=O)c1ccc(C)cc1 (stereo unspecified) | -0.59 | 3.7
COC(=O)NCCCN1CCCC1=O | 0.84 | -0.5
Cc1ccc2nc(NC(=O)C3CCCC3)sc2c1 | -0.85 | -1.1
CCOC(=O)c1cnc2[nH]c3ccccc3n2c1=O | -0.36 | 2.0
CSc1ccccc1NC(=O)CN1CC(C)OC(C)C1 (stereo unspecified) | nt | 1.7
COc1ccc(CNCCNC(=O)c2ccncc2)c(OC)c1OC | -0.021 | 0.0
CCn1c(SCC(=O)N(C2CCCCC2)C2CCCCC2)nnc1-c1cc2cccc(OC)c2o1 | -0.11 | 2.5
CCCCN1C(=O)Cc2c1nc(N)c1c(N)nc(N(CCC)CCC)c(C#N)c21 | nt | 0.8
O=C(Cn1c(=O)n(CC2CS2)c2ccccc21)c1ccccc1 (stereo unspecified) | -0.39 | -2.1
O=C(NCCc1ccccc1)C1CCCC1 | 0.63 | -1.1
Cc1cc2nc(CN3CCCCC3)cc(=O)n2o1 | 1.1 | -0.3
Cn1cccc1C(=O)NC(=O)CSc1nc2ccccc2s1 | nt | 0.3
CN(C)Cc1nc2ccccc2c(=O)n1Cc1nc(C(C)(C)C)cs1 | nt | -0.8
CCn1cc(CCC(=O)O)c2ccccc21 | 1.3 | 1.9
CCOC(=O)C1CCC(C(=O)OCC)N1C(=O)Nc1ccc(Cl)cc1 (stereo unspecified) | nt | -0.1
Clc1ccc(-n2ncnc2-c2ccc3c(c2)OCO3)cc1 | nt | -3.6
CC(=O)N1CCN(C2=NC(=O)/C(=C\c3ccc(-c4ccc(Cl)c(Cl)c4)o3)S2)CC1 | 0.66 | -3.5
O=C(CSc1nnc(-c2cccs2)n1-c1ccccc1)NCC1COc2ccccc2O1 (stereo unspecified) | nt | 2.2
COC(=O)c1ccc(NC(=O)C(C)Sc2nc3c(c(=O)[nH]2)CCCC3)cc1 (stereo unspecified) | -1.9 | 1.5
CNC(=O)CN(C1CCCCC1)S(=O)(=O)c1ccc(C)cc1 | 0.054 | 2.7
Cn1/c(=N/N=C2\CC3CC=CC23)sc2ccccc21 (stereo unspecified) | nt | -0.3
N#Cc1c(-c2ccccc2)c(-c2ccccc2)nn(CC(=O)NN)c1=O | nt | 0.2
Nc1c(C(=O)NCC2CCCO2)c2nc3ccccc3nc2n1/N=C/c1ccccn1 (stereo unspecified) | 1.5 | nt
Cc1cccc2c(=O)c(N)c[nH]c12 | -1.1 | 0.7
NC(=S)N/N=C/c1ccc(N2CCOCC2)s1 | nt | 2.3
CCOc1cc2c3c(c1)C1(Nc4ccccc4CO1)C(=O)N3C(C)(C)CC2C (stereo unspecified) | 0.46 | 4.8
Cc1nc2ccc(NS(=O)(=O)c3ccc(F)cc3)cc2s1 | nt | 1.8
O=S(=O)(Nc1ccccc1)c1ccc(Cl)cc1 | nt | 0.7
O=C(CSc1nc2c(c(=O)n1CCc1ccccc1)SCC2)N1CCCC1 | -0.11 | 0.1
Cc1cccc(C(=O)N=Nc2c(O)[nH]c3ccc(C)cc23)c1 | -0.74 | 2.1
O=C1CSc2ccc(C(=O)N3CCN(c4ccc(F)cc4)CC3)cc2N1 | nt | -0.3
CC1CCN(C(=O)CCn2ccc3cc(S(=O)(=O)N4CCCCC4)ccc32)CC1 | nt | -3.4
COc1cc(OC)c(OC)cc1CNc1ccc2[nH]c(=O)[nH]c2c1 | 0.65 | 1.7
CCCCCCC1C(C#N)=C(N)OC2=C1C(=O)CC(C)(C)C2 (stereo unspecified) | 0.29 | 1.4
Cc1nn(CC(=O)N(C)C)c(C)c1S(=O)(=O)N(C)C | nt | 2.7
CCC1(CC)NC(=S)N(Nc2ccccc2)C1=O | 0.9 | -0.3
O=C(Nc1ccccc1)c1cccc(-c2nnc(-c3ccccc3)o2)c1 | -1.2 | -0.5
CCC1CCCCN1C(=O)c1cnn2cccnc12 (stereo unspecified) | -0.53 | 0.4
CC(=O)NCc1ccc(C(=O)CSc2n[nH]c(-c3cccs3)n2)s1 | nt | -0.1
O=C(CN1C(=O)CSC1=O)Nc1cccc(Cl)c1 | 0.63 | -0.3
O=C(/C=C/c1cn(-c2ccccc2)nc1-c1ccccc1)OCC(=O)N1CCN(C(=O)c2ccco2)CC1 | nt | 3.2
CC(C)Oc1ccc2ccc(=O)oc2c1 | 0.82 | 0.8
O=C(Cn1nnc(N2CCOCC2)n1)c1ccccc1 | nt | 0.7
CC(C)(CO)NS(=O)(=O)c1ccc2c(c1)oc(=O)c1cc(S(=O)(=O)NC(C)(C)CO)ccc12 | 1.4 | -3.3
COc1cc(C(=O)O)ccn1 | -0.77 | 0.8
c1ccc(CN2CCC(Nc3ncnc4c3oc3ccccc34)CC2)cc1 | nt | -4.4
CCCc1ccc(S(=O)(=O)Nc2ccc(C)c(NS(C)(=O)=O)c2)cc1 | nt | 1.9
CCOc1ccc(S(=O)(=O)N(CC(=O)NC2CC2)c2ccccc2)cc1 | nt | -1.4
CC(C)CCNC(=O)C1CCCN(S(=O)(=O)c2ccc3c(c2)CC(C)N3C(=O)C2CC2)C1 (stereo unspecified) | -1.2 | 1.2

Next part
molecule | LANA-nucl inh | Ab BasE inh
COC(=O)c1ccc(COC(=O)c2ccco2)cc1 | 0.56 | -1.2
Cc1cccc(NC(=S)N(C)C2CCCCC2)c1 | nt | 1.9
CC(=O)Nc1ccc(NC(=O)[C@@H](NC(=O)c2ccc(F)cc2)C(C)C)cc1 | nt | 1.0
CN(C)S(=O)(=O)n1ccnc1 | -0.74 | -2.5
CCCNC(=O)C1CCCN(c2nnc(N3CCCC3=O)s2)C1 (stereo unspecified) | 0.54 | 1.0
CC(NC(=O)C1CC1)C(c1cccs1)N1CCN(Cc2ccccc2)CC1 (stereo unspecified) | -1.1 | -1.7
NC(=O)c1cnn(-c2ccc(S(N)(=O)=O)cc2)c1NC(=O)c1c(F)cccc1F | nt | 2.0
CCOC(=O)N1CCC(NC(=O)c2ccc(CS(=O)(=O)c3ccccc3C)o2)CC1 | -0.29 | 1.9

Next section.
Value order – LANA-nucl inh	Ab BasE inh
- CCOC(=O)c1cnc(-c2ccccc2)nc1N1CCOCC1
  1.2	-6.0
- Cc1cccc(CS(=O)(=O)c2ncn[nH]2)c1
  0.21	nt
- Cc1c(OC(C)C(=O)O)ccc2c3c(c(=O)oc12)CCCC3 (stereo unspecified)
  -0.73	3.2
- CCOC(=O)c1cnn(-c2cccc(C)c2)c1C1CCNCC1
  0.36	-0.9
- CC(C)(C)C(=O)OC1OCCOC1NC(=S)N1CCCC1 (stereo unspecified)
  nt	-2.2
- COc1ccc(OCC(O)Cn2nc(C)cc2C)cc1 (stereo unspecified)
  nt	0.4
- C=CCNC(=O)c1cc2cc(Cl)ccc2o1
  0.12	1.5
- CC(C)C1Nc2ccc(C(=O)N3CCN(c4ccccn4)CC3)cc2NC1=O (stereo unspecified)
  -0.67	1.2
- COC(=O)c1ccc2c(c1)N(C)S(=O)(=O)c1cnc(SC)nc1-2
  nt	0.3
- Cc1ccc(CSc2nnc(-c3ccccc3N)c(=O)[nH]2)cc1
  0.036	-1.5
- O=C(c1ccc(Cl)cc1Cl)N1CCN(Cc2ccccc2)CC1
  0.7	nt
- Cc1cc(C(=O)Cn2ccsc2=N)c(C)n1C1CC1
  nt	-0.6
- O=c1c(F)cn(CC2CC(c3ccccc3)=NO2)c(=O)n1CC1CC(c2ccccc2)=NO1 (stereo unspecified)
  nt	0.9
- CCN1CCN(C(=O)c2cn(-c3ccccc3)nc2-c2ccccc2)CC1
  nt	-1.2
- O=C1CCCN2N=C(SCc3ccc(Br)cc3)SC2=N1
  -0.87	-1.0
- O=S(=O)(NNc1nccc(-c2cccnc2)n1)c1cccc(C(F)(F)F)c1
  2.3	0.3
- NC(=O)c1ccc(C(F)(F)F)cn1
  nt	1.2
- CCn1nc(-c2cccc(Br)c2)ccc1=O
  -1.2	-0.4
- O=C(NCC1CCCO1)c1ccc(CS(=O)(=O)c2cccc(C(F)(F)F)c2)o1 (stereo unspecified)
  0.93	2.0
- C(=N/n1cnnc1)/c1ccc(N2CCCCC2)cc1
  2.2	-2.0
- CCOc1ccc(C(=O)Nc2c(N)nc(SC)[nH]c2=O)cc1
  -0.77	0.6
- CCCc1nnc(SCc2nnc(-c3ccccc3)o2)o1
  0.46	0.3
- CCN(CC)S(=O)(=O)c1cc(C(=O)O)ccc1OC
  0.33	-1.6
- N#CC(C#N)C(CC(=O)c1cccs1)c1ccccc1 (stereo unspecified)
  2.1	-4.6
- Cc1ccc2nc(NS(C)(=O)=O)sc2c1
  0.75	-0.5
- Cc1cc(C)n(-c2ccc(CC#N)cc2)n1
  nt	-1.9
- CCOC(=O)c1oc2ccccc2c1COC(=O)CCC(=O)c1ccccc1
  nt	1.3
- CC(=O)Nc1ccc(NC(=S)NC(=O)C2CCCC2)cc1
  0.57	3.2
- O=C(Cc1cn2ccsc2n1)OCC(=O)c1ccccc1
  nt	0.1
- O=C(N/N=C\c1c(Cl)cccc1Cl)c1nc(CS(=O)(=O)c2ccc(Cl)cc2)no1
  2.3	-3.0
- O=C(Nc1ccc(S(=O)(=O)N2CCOCC2)cc1)c1ccc(Br)s1
  nt	-1.6
- N#Cc1ccc(Oc2ncnc3c2oc2ccccc23)cc1
  nt	0.3
- CCn1c2ccccc2c2cc(C=Nc3ccc(S(N)(=O)=O)cc3)ccc21
  0.23	1.3
- CC(C#N)OC(=O)c1ccccc1Oc1ccccc1 (stereo unspecified)
  nt	4.0
- Oc1ccc(Oc2ccc(Oc3ccc(O)cc3)cc2)cc1
  -0.17	2.9
- C=CCn1c(=O)c2c(ncn2C)n(C)c1=O
  -0.095	1.1
- O=C1NC(=S)S/C1=C\c1c(NCc2ccco2)nc2ccccn2c1=O
  nt	-17
- O=C(Nc1ccccc1)C1CCCN1C(=O)Nc1ccc(F)cc1 (stereo unspecified)
  -0.35	-0.2
- CC(C)(C)c1cc(C(=O)/C(C#N)=C/Nc2ccccc2)no1
  0.53	-0.1
- CC12CC3(C)CC(C)(C1)CC(C(=O)NC(C)(C)CO)(C2)C3
  -1.1	3.0
- Cc1noc(C)c1CSc1nnc(-c2ccccc2)o1
  nt	0.8
- CC1CN(C(=O)COC(=O)c2ccc(S(=O)(=O)C(F)F)cc2)CC(C)O1 (stereo unspecified)
  nt	-1.5
- Cc1cc(/C=N/NS(=O)(=O)c2cccc(C(F)(F)F)c2)no1
  -0.89	1.8
- Cc1nn(-c2ccccc2)nc1CNS(=O)(=O)c1c(C)noc1C
  nt	1.6
- C=CCNC(=O)c1cc2nc(C3CC3)cc(C(F)F)n2n1
  -0.14	1.6
- CN(C)c1n[nH]c(N(C)C)n1
  -0.66	nt
- COc1cc(/C=C/C(=O)OCc2cc(=O)n3ccsc3n2)ccc1OC(F)F
  nt	2.6
- Cc1nc2sccn2c1-c1csc(Nc2ccc(C(=O)O)cc2)n1
  nt	0.6
- CCc1nc2ccc(N)cc2[nH]1
  -0.075	0.4
- Cc1ccc2[nH]c(=O)c(-[n+]3ccccc3)c(-c3ccccc3)c2c1
  nt	-0.6
- Cc1nnc2c(SC(C)C)nc3ccccc3n12
  -0.55	2.0
- CN(C)S(=O)(=O)c1ccc(C(=O)OCC(=O)c2csc(N3CCCCC3)n2)cc1
  nt	2.1
- O=c1cc(-c2ccccc2)oc2c(O)c(O)ccc12
  1.2	1.3
- CC1(C)C(=O)Nc2ccccc2N1C(=O)COc1ccc(S(=O)(=O)N2CCOCC2)cc1Cl
  nt	1.0
- N#Cc1cc2c(nc1S(=O)Cc1ccc(Cl)cc1)CCCC2 (stereo unspecified)
  nt	0.4
- CCCNc1cc(C)nc2nc(-c3ccc(OC)cc3)nn12
  0.03	-4.0
- COC(=O)c1cc2c(N)c(C(=O)c3cc(C#N)c(SC)nc3C)sc2nc1C
  nt	15
- COc1ccccc1NC(=O)C(C)OC(=O)C1COc2ccccc2O1 (stereo unspecified)
  nt	-1.2
- CC(C)(C)CC(C)(C)NC(=O)Cc1cccs1
  -0.31	0.8

3 of the entries above in order of the LANA-nucl inh value, descending.
| SMILES | LANA-nucl inh |
| --- | --- |
| O=C(NCC1CCCO1)c1ccc(CS(=O)(=O)c2cccc(C(F)(F)F)c2)o1 (stereo unspecified) | 0.93 |
| CC(C)Oc1ccc2ccc(=O)oc2c1 | 0.82 |
| COC(=O)c1ccc(COC(=O)c2ccco2)cc1 | 0.56 |

High-throughput results deposited in PubChem by ICCB-Longwood Screening Facility, Harvard Medical School.
